Screening results (PubChem)
HPGD inh: qHTS Assay for Inhibitors of HPGD (15-Hydroxyprostaglandin Dehydrogenase); 15-hydroxyprostaglandin dehydrogenase [NAD(+)] (Homo sapiens), P15428; purified HPGD, NADH fluorescence kinetic, PGE2 substrate; Potency, µM, inactives show top-dose activity change, negative = inhibition, usual class: inhibitors; actives 4.3% (n = 150,000); active = well fitted inhibition curve with a large enough effect (not every such curve was filed as active); inconclusive = small, poorly fitted or top-dose-only effect, or another doubt; inactive = no such curve, though single readings can be large or run the other way;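 further: top concentration of the series not given in the record; plate controls included wells without enzyme; inactives centre near -10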
Target sequence (P15428 whole entry, looked up): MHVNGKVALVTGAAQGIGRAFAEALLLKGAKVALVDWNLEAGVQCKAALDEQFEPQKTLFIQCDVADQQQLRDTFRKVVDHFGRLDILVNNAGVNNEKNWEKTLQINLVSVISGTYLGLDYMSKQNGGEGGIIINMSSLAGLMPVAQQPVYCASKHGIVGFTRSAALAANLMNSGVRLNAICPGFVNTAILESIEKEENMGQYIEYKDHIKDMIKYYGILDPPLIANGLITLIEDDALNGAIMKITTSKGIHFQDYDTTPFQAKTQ
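NADH formation kinetics: reaction with 30 uM PGE2 and 1 mM NAD+ (final), 20 nM enzyme, Tris-HCl pH 8 with Tween 20, after 15 min compound preincubation at room temperature. Fluorescence change, last versus first of five reads.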
* hit, by the source's call; ? = inconclusive; ! = not confirmed by another sample. On the % scale 0 is the no-effect control and ±100 the full control effect; potency means the concentration at half of the fitted maximal effect. The list is partial. The share of hits here may be higher or lower than overall.

item	HPGD inh	SMILES
1	-13%	Oc1cccc2ccc[n+](CC(O)Cn3c4ccccc4c4ccccc43)c12 (stereo unspecified)
2	6%	O=C(CC12CC3CC(CC(C3)C1)C2)NCC(=O)N1CCCC1
3	?	CCOC(=O)c1sc2nc(N3CCOCC3)c3c(c2c1N)CC(C)(C)N(C)C3
4	-21%	CCOC(=O)c1c(C)c(C(=O)N2CCN(c3cccc(Cl)c3)CC2)c(C)n1C
5	-16%	Cn1cc(C=O)c2cc(S(=O)(=O)N3CCOCC3)ccc21
6	0%	CCN(CC)CCOC(=O)c1cccc(Br)c1
7	-9%	COc1ccc(CN2CCn3ncc(C(=O)Nc4ccccc4)c3C2=O)cc1
8	4%	COc1ccc(OCCN2C(=O)NC3(CCc4ccccc4C3)C2=O)cc1 (stereo unspecified)
9	-23%	COCCNC(=S)N/N=C(\C)c1ccccc1O
10	-6%	CCOC(=O)/C=c1\s/c(=C\c2c(OCC)ccc3ccccc23)c(=O)n1CC(=O)NCC1CCCO1 (stereo unspecified)
11	-2%	Cc1cccc(C)c1NC(=O)COn1nnc2ccc(C(F)(F)F)cc21
12	-14%	CN(C)/C=C(/C(=O)c1ccc(Cl)cc1Cl)S(=O)(=O)c1ccc(Cl)cc1
13	-10%	O=C(NN=C1CCC(c2ccccc2)CC1)c1cc2c(s1)CCCC2 (stereo unspecified)
14	-2%	Cc1ccc(Oc2ncc(CN3CCOCC3)s2)cc1
15	-2%	C=CCn1c(Cc2cccs2)nnc1SCC(=O)Nc1cc(OC)cc(OC)c1
16	-14%	COC(=O)c1ccc(NC(=O)c2cn(-c3cccc(C)n3)cn2)cc1
17	-5%	c1ccc(COc2ccc(OCCOCCn3cncn3)cc2)cc1
18	-9%	COc1ccccc1CNC(=O)[C@@H]1CCCN1C(=O)C1CCN(S(=O)(=O)c2ccc(C)cc2)CC1
19	-4%	NS(=O)(=O)c1ccc(Cc2ncc(C(F)(F)F)cc2Cl)s1
20	-23%	Cn1c(NC(=O)/C=C/c2ccccc2)cc(=O)n(C)c1=O
21	-15%	O=C(NC1=NCCS1)c1sc2cc(F)ccc2c1Cl
22	?	COc1cccc(-c2nc(Nc3ccncc3)c3ccccc3n2)c1
23	-16%	O=C(Nc1ccc(S(=O)(=O)N2CCOCC2)cc1)C1CCCCC1
24	-10%	CCCCN(CC)C(=O)c1ccccc1Oc1ccccc1
25	-10%	COc1ccccc1N1CCN(CCCNC(=O)Nc2ccccc2)CC1
26	-3%	CN1CCN(S(=O)(=O)c2ccc(NC(=O)c3ccco3)cc2)CC1
27	-1%	Cc1cc(C)cc(-c2nc(-c3ccncc3)no2)c1
28	-9%	COc1ccc(OCC(=O)N2CCN(C(=O)c3ccco3)CC2)cc1
29	-9%	CSc1nc(N2CCOCC2)c2c(c1C#N)CC(C)(C)OC2
30	-21%	CC(C)C1COC(c2cccc3ccccc23)=N1 (stereo unspecified)
31	?	COc1ccccc1NC(=O)CSc1nc(O)cc(=O)[nH]1
32	?	CN(C)c1ccc(-c2nc(N(C)Cc3ccco3)c3ccccc3n2)cc1
33	-6%	Cc1c(NC(=O)CSc2nnc(Nc3ccccc3)s2)c(=O)n(-c2ccccc2)n1C
34	-11%	COc1ccc2c(c1)CC/C2=N\OC(=O)c1cccc(C)c1
35	-9%	COC(=O)Cc1ccc(NC(=S)NCc2ccc(Cl)cc2)cc1
36	-5%	CCCn1c(SCC(=O)Nc2nc(C)c(C(=O)OC)s2)nnc1C(C)C
37	-9%	CCCNc1ncnc2[nH]ncc12
38	?	COc1ccc(-c2c3c(=O)n(C)c(=O)n(C)c3cn2-c2cc(OC)ccc2OC)cc1
39	-13%	COC(=O)C(C)(C(=O)OC)c1ccc([N+](=O)[O-])cn1
40	32µM*	CCCCNC(=S)Nc1cccc(C(C)=O)c1

Two compounds picked at random from the list so far:
item	HPGD inh	SMILES
38	?	COc1ccc(-c2c3c(=O)n(C)c(=O)n(C)c3cn2-c2cc(OC)ccc2OC)cc1
31	?	COc1ccccc1NC(=O)CSc1nc(O)cc(=O)[nH]1

More results:
item	HPGD inh	SMILES
41	-4%	CCN(CC)S(=O)(=O)c1ccc(C)c(NC(=O)COC(=O)c2ccc(C)c(S(=O)(=O)N3CCOCC3)c2)c1
42	-16%	COc1ccc(C(=O)c2c[nH]c(C(=O)NCc3cccnc3)c2)cc1
43	-11%	C1CCCNCC1
44	-12%	Clc1ccc(CNc2nc(N3CCOCC3)nc(N3CCOCC3)n2)cc1
45	-7%	C=CCN1CCc2c(cc(O)c(O)c2Br)[C@@H](c2ccccc2)C1
46	?	CCCCc1cc(=O)oc2cc(OCc3nn[nH]n3)c(Cl)cc12
47	-6%	CCn1cc(C(=O)NCC2CCCO2)c2cc(OC)c(OC)cc2c1=O (stereo unspecified)
48	-6%	CCOc1ccc(NC(=O)CC2C(=O)N(c3ccccc3)C(=S)N2Cc2ccccn2)cc1 (stereo unspecified)
49	-11%	CCCCn1c(SCC(=O)Nc2nnc(C)s2)nc2c1c(=O)n(C)c(=O)n2C
50	-5%	Nc1cccc([N+](=O)[O-])c1

Part of the list above in order of molecular weight, rising.
item	HPGD inh	SMILES
43	-11%	C1CCCNCC1
50	-5%	Nc1cccc([N+](=O)[O-])c1
42	-16%	COc1ccc(C(=O)c2c[nH]c(C(=O)NCc3cccnc3)c2)cc1
47	-6%	CCn1cc(C(=O)NCC2CCCO2)c2cc(OC)c(OC)cc2c1=O (stereo unspecified)
48	-6%	CCOc1ccc(NC(=O)CC2C(=O)N(c3ccccc3)C(=S)N2Cc2ccccn2)cc1 (stereo unspecified)
41	-4%	CCN(CC)S(=O)(=O)c1ccc(C)c(NC(=O)COC(=O)c2ccc(C)c(S(=O)(=O)N3CCOCC3)c2)c1

(continued)
item	HPGD inh	SMILES
51	-15%	N#Cc1c(NC(=O)c2nc3ncccn3n2)sc2c1CCCCC2
52	-5%	COc1cc(NC(=O)COC(=O)CC(C)(C)C)c(C)cc1[N+](=O)[O-]
53	-7%	O=C(N/C=N/O)C1=NOC(CNc2ncc(C(F)(F)F)cc2Cl)C1 (stereo unspecified)
54	-8%	Cc1cccc(C(=O)Nc2c(C#N)c(C)c(C)n2Cc2ccccc2)c1
55	-10%	CN(C)CCCn1c(-c2ccccc2)nc(=S)c2c1CCCC2
56	3%	O=C(CNCc1ccccc1)Nc1ccccc1-c1ccccc1
57	-7%	O=C(CC1SC(=O)N(Cc2ccc(Cl)cc2)C1=O)Nc1nccs1 (stereo unspecified)
58	-6%	CCOC(=O)CCC(=O)Nc1cccc([N+](=O)[O-])c1
59	-5%	CCOC(=O)c1c(NC(=O)COC(=O)Cn2cnc3ccccc32)sc(C)c1C
60	-9%	CCOC(=O)C1=C(c2ccccc2)Nc2c(c(=O)n(C)c(=O)n2C)C1c1ccc(O)c(OC)c1 (stereo unspecified)
61	-6%	O=C(CSc1nnc(-c2cccc(S(=O)(=O)N3CCOCC3)c2)n1C1CCCCCC1)NCc1ccccc1
62	-29%	CN(C)CCSc1nc(N)c2c3c(sc2n1)CN(C)CC3
63	-7%	CCOC(=O)C(C)Sc1nc(C2CC2)cc(C(F)(F)F)c1C#N (stereo unspecified)
64	-1%	CC1CCN(C(=O)CCNS(=O)(=O)c2ccccc2)CC1
65	-1%	CC(=O)C1=C(c2ccccc2)NC(=O)NC1c1ccccc1OCC(=O)NCc1ccccc1 (stereo unspecified)
66	-27%	COc1ccc(-c2csc3nc(-c4cccnc4)nc(N4CCC(C(N)=O)CC4)c23)cc1OC
67	-12%	CCC(=O)NC(=S)Nc1ccc(NC(=O)c2ccc(OC)cc2)cc1
68	-17%	NC(=O)C(CC(=O)O)NC(=O)[C@@H]1CCCCNc2c(I)cc([N+](=O)[O-])cc2C(=O)N[C@@H](CO)C(=O)NCC(=O)N1 (stereo partly specified)
69	-19%	CCn1cc(C(=O)NCCCN2CC(C)CC(C)C2)c2cc(OC)c(OC)cc2c1=O (stereo unspecified)
70	-24%	O=[N+]([O-])c1ccc(N2CCOCC2)cc1SCc1ccco1
71	-7%	CCN(CC)CCOc1ccc(Br)cc1
72	-15%	CCC1C(=O)N=C(SCC(=O)Nc2ccccc2)NC1=O (stereo unspecified)
73	-17%	COc1ccc(NC(=O)c2c(NC(=O)CNCc3ccco3)sc3c2CCC3)cc1
74	-10%	COC(=O)Cn1c(C(=O)N(C)C)cc2c1C[C@H]1CN(C(=O)c3ccccc3)[C@@](Cc3ccc(OC)cc3)(C(=O)OC)[C@@H]21
75	-5%	Cc1ccc(S(=O)(=O)N(C)C)cc1NC(=S)NC1CCCC(C)C1C (stereo unspecified)
76	-7%	CC(=O)Nc1ccc(NC(=O)c2ccccc2CC[N+](=O)[O-])cc1
77	-10%	CCn1cc(C(=O)NCCCN(C)c2ccccc2)c(=O)c2cc(S(=O)(=O)N(C)C)ccc21
78	-4%	CC1CN(C(=O)c2ccc3c(c2)OCO3)OC(c2ccccc2)O1 (stereo unspecified)
79	1%	Cc1nc(-c2c(-c3ccc(O)cc3O)noc2C(F)(F)F)cs1
80	-28%	S=C(Nc1ccccc1)c1ccccn1
81	-10%	O=C1OC(/C=C/c2ccc(Cl)cc2)=NC/1=C/c1ccco1
82	-11%	CC(=O)c1sc2nc(=O)c(C)nn2c1C
83	-14%	CCc1cc2c(=O)c(-c3cnn(-c4ccccc4)c3)c(C)oc2cc1OCC(=O)Nc1ccc(F)c(F)c1
84	-5%	COC(=O)c1cc2sccc2n1CC(=O)Nc1ccc(OC)c(OC)c1OC
85	0.79µM*	CC1CCN(C(=O)c2ccc(CSc3nc4ccncc4n3Cc3ccc(F)cc3)cc2)CC1
86	?	O=C(Cc1ccc(Cl)cc1)Nc1ccc2oc(-c3ccncc3)nc2c1
87	-25%	Fc1ccccc1N1CCN(c2cnc3ccccc3n2)CC1
88	-4%	CC(=O)Oc1cccc(N2C(=O)C3CC=C(Cl)CC3C2=O)c1 (stereo unspecified)
89	-22%	COc1ccc(C(c2sc3ncnn3c2O)N2CCN(c3ccccc3F)CC2)cc1OC (stereo unspecified)
90	-20%	CCOC(=O)Nc1sc2nc(C)cc(C)c2c1-n1cccc1
91	-13%	COc1ccc(C2C(C(=O)Nc3cccnc3)=C(C)Nc3nc(-c4ccco4)nn32)cc1 (stereo unspecified)
92	-14%	Cc1ccccc1NC(=O)Cn1c(NCC(C)O)nc2ccccc21 (stereo unspecified)
93	-9%	O=C(COC(=O)Cn1cnc2ccccc21)NCCc1ccc(Cl)cc1
94	-7%	Cc1cccc(NC(=O)COC(=O)c2cccc3c2C(=O)c2ccccc2C3=O)c1C
95	-3%	CCN(CC)CCCNC(=O)c1ccc(-n2c(=O)c(=O)[nH]c3ccccc32)cc1
96	-25%	COc1ccc(-n2c(C)c3c(OC)cccc(=O)c3c2C)cc1
97	-11%	COc1ccc(C2=NNC(=O)CC2)cc1
98	-15%	Cc1cc(-c2nnc(SCC(=O)Nc3ccccc3C(F)(F)F)o2)c(C)n1-c1ccccc1
99	-14%	O=C(c1ccccc1)N(C1=NCCCCS1)c1ccccc1
100	2%	CCC1(C)Cc2ccccc2-c2c1c(=O)n(Cc1ccccc1)c1nnnn21 (stereo unspecified)

Entries from the list above containing an NH in an aromatic ring:
item	HPGD inh	SMILES
31	?	COc1ccccc1NC(=O)CSc1nc(O)cc(=O)[nH]1
37	-9%	CCCNc1ncnc2[nH]ncc12
42	-16%	COc1ccc(C(=O)c2c[nH]c(C(=O)NCc3cccnc3)c2)cc1
46	?	CCCCc1cc(=O)oc2cc(OCc3nn[nH]n3)c(Cl)cc12
95	-3%	CCN(CC)CCCNC(=O)c1ccc(-n2c(=O)c(=O)[nH]c3ccccc32)cc1

Following part.
item	HPGD inh	SMILES
101	-7%	COc1ccc(CCCc2nnc(SCC(=O)Nc3ncc(C)s3)o2)cc1
102	-7%	CC(C)c1nc(SCC(=O)N2CCOCC2)c2c(=O)n(C)c(=O)n(C)c2n1
103	-6%	Cc1cc(-c2ccco2)n(CC(=O)NCCCc2ccccc2)n1
104	-3%	CCc1ccc(C(c2ccc(CC)cc2)C(Cl)Cl)cc1
105	?	O=c1c2c3c(sc2n2cnnc2n1Cc1ccccc1)CN(Cc1ccccc1)CC3
106	?	O=C1c2ccccc2C(=O)N1CCSc1n[nH]c(=S)s1
107	-3%	CCN(CC)S(=O)(=O)c1ccc(C(=O)Nc2ncn(Cc3ccccc3)n2)cc1
108	?	c1ccc2c(N3CCOCC3)nc(N3CCOCC3)nc2c1
109	?	CC1(C)Cc2c(cnn2-c2ccccc2)-c2c1c1ccccc1n2CC(O)CCl (stereo unspecified)
110	-2%	COCCn1nnnc1C(c1ccccc1)N1CCN(C)CC1 (stereo unspecified)
111	-10%	O=Cc1c(-[n+]2ccccc2)nc([O-])n1-c1ccccc1
112	?	C=CCOC(=O)C1=C(C)OC(N)=C(C#N)C1c1ccc2c(c1)OCO2 (stereo unspecified)
113	25µM*!	Cc1ccc(CNC(=O)[C@H](C)[C@H]2C[C@]2(C)[C@H](NC(=O)OCc2ccccc2)c2ccccc2)o1
114	?	Cc1cc(=O)oc2cc(OCc3ccc(C(=O)OCC(=O)Nc4ccccc4OC(F)F)cc3)ccc12
115	-8%	CCOC(=O)C1CN(S(=O)(=O)c2ccc(F)cc2)C1
116	?	CCn1cnc2cc(NCc3ccc(C)cc3)ccc21
117	-7%	C=CCc1ccc(OCC(O)CN2CCCCC2)c(OC)c1 (stereo unspecified)
118	-4%	CCn1c(C(=O)N2CCCC(C(=O)O)C2)cc2sccc21 (stereo unspecified)
119	-5%	CSC1=C(C#N)C2(CCCC2)C(C#N)=C(N)N1
120	-27%	Cc1ccc(O)c(/C=N/NC(=O)C2=NNC(c3ccccc3)(c3ccccc3)C2)c1
121	?	Clc1ccc(-c2nnc(-c3ccco3)o2)cc1
122	-2%	Cc1cccc(NC(=O)CS(=O)(=O)c2c[nH]c3ccccc23)c1C
